Screens (PubChem BioAssay)
Vaccinia inh = Vaccinia orthopox stage-specific inhibition | Vaccinia-infected cells, mCherry/Venus stage reporter fluorescence; hits give low values; some inactives read as strong as hits | activity change (mCherry), % (test concentration not listed) | 89,000 compounds, 0.01% hits | AID 1053133;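 active = mCherry past -33% and 40 or more points under the early reporter, replicates agreeing; inconclusive = past -33% without that gap or agreement; tested in A549 cells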;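 also: scaled between vehicle wells and reference inhibitor wells; 23 nL library stock went into each well; one replicate is shown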
Vaccinia inh Venus = second read-out of Vaccinia inh, no call of its own (marks repeat the call); activity change (Venus), %; measured here: Venus reporter, other viral stage;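 negative = less Venus signal; first of two replicates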
The depositor's hits bear a star; ? = inconclusive; . = not tested or not shown.

Results follow in this order: Vaccinia inh | Vaccinia inh Venus
C[C@@H]1CN([C@@H](C)CO)C(=O)c2cc(NS(=O)(=O)c3ccc(F)cc3)ccc2O[C@H]1CN(C)C(=O)Nc1ccc2c(c1)OCO2
    20 | 17
Cc1noc(C)c1NC(=O)N[C@H]1C=C[C@@H](CC(=O)NCc2ccc(Cl)c(Cl)c2)O[C@@H]1CO
    -2 | -3
O=C(Nc1ccc(F)cc1)N1CC(=O)N2[C@@H](CO)[C@H](c3ccc(C#CC4CC4)cc3)[C@@H]2C1
    -5 | 1
O=C1CN(S(=O)(=O)c2ccccc2)C[C@H]2[C@H](c3ccc(Br)cc3)[C@H](CO)N12
    -3 | -7
C[C@H]1CN([C@@H](C)CO)C(=O)c2cc(NS(=O)(=O)c3cn(C)cn3)ccc2O[C@H]1CN(C)CC1CCCCC1
    18 | 6
C[C@@H]1CCCCO[C@H](CN(C)S(C)(=O)=O)[C@@H](C)CN([C@H](C)CO)C(=O)c2cc(NC(=O)Nc3cccc4ccccc34)ccc2O1
    18 | 14
C[C@H]1CN([C@@H](C)CO)C(=O)c2cccc(N(C)C)c2O[C@@H]1CN(C)S(=O)(=O)c1cccs1
    12 | 5
O=C(c1cccc(F)c1)N1C[C@@H]2[C@H](c3ccccc31)[C@H](CO)N2Cc1cocn1
    10 | 2
C/C=C/c1ccc2c(c1)O[C@@H](CN(C)C(=O)Cc1ccccc1)[C@@H](C)CN([C@H](C)CO)S2(=O)=O
    -29 | -22
Cc1ccc(S(=O)(=O)N(C)C[C@H]2Oc3cc(C4=CCCC4)ccc3S(=O)(=O)N([C@@H](C)CO)C[C@H]2C)cc1
    ? | .
C[C@@H]1CN([C@H](C)CO)C(=O)c2cc(NS(=O)(=O)c3ccc(Cl)cc3)ccc2O[C@@H](C)CCCCO[C@H]1CN(C)Cc1ccc2c(c1)OCO2
    ? | -20
CCC(=O)N1[C@H](CNC(=O)CN(C)C)[C@@H](c2ccc(C3=CCCC3)cc2)[C@@H]1CO
    12 | 14
C[C@H]1CN([C@@H](C)CO)C(=O)c2cccc(NS(=O)(=O)c3ccccc3)c2O[C@H]1CN(C)Cc1ccc(Oc2ccccc2)cc1
    -3 | 3
C[C@H]1CCCCO[C@@H](CN(C)C(=O)Nc2ccc3c(c2)OCO3)[C@@H](C)CN([C@@H](C)CO)C(=O)c2cc(NS(C)(=O)=O)ccc2O1
    20 | 6
C[C@H]1CN([C@@H](C)CO)C(=O)c2cc(NS(C)(=O)=O)ccc2O[C@H]1CN(C)Cc1ccc(-c2ccccc2)cc1
    21 | 9
CCCNC(=O)N1C[C@@H](O)COC[C@@H]2O[C@@H](CC(=O)OC)CC[C@H]21
    11 | 1
CC(=O)N(C)C[C@H]1Oc2ncc(C#Cc3ccncc3)cc2C(=O)N([C@H](C)CO)C[C@@H]1C
    11 | 11
CN1CCN(C(=O)C[C@H]2CC[C@H]3[C@@H](COC[C@@H](O)CN3C(=O)Nc3ccc(F)cc3)O2)CC1
    15 | 11
C[C@H]1CN([C@@H](C)CO)C(=O)c2cccc(NC(=O)Nc3ccc(F)cc3)c2O[C@H]1CN(C)Cc1ccc(C(=O)O)cc1
    7 | 9
CN(C)CC(=O)Nc1ccc2c(c1)[C@@H]1C[C@H](CC(=O)N3CCc4ccccc4C3)O[C@@H](CO)[C@@H]1O2
    -12 | -14
CCC(=O)N1C[C@H](C)[C@@H](OC)CN(C)C(=O)c2ccc(NC(=O)C3CCCCC3)cc2OC[C@H]1C
    10 | 5
C[C@H](CO)N1C[C@H](C)[C@H](CN(C)Cc2ccccc2C(=O)O)OCc2cn(nn2)CCCC1=O
    9 | 8
C[C@H]1CCCCO[C@H](CN(C)Cc2ccc(C(=O)O)cc2)[C@@H](C)CN([C@@H](C)CO)C(=O)c2cc(NC(=O)Nc3ccc4c(c3)OCO4)ccc2O1
    -11 | 5
C[C@H]1CN([C@@H](C)CO)C(=O)c2cc(NC(=O)Nc3ccc(F)cc3)ccc2O[C@@H]1CN(C)Cc1ccncc1
    0 | 0
C[C@@H]1CN([C@H](C)CO)C(=O)Cc2cc(NC(=O)c3ccncc3)ccc2O[C@H]1CN(C)Cc1ccc2c(c1)OCO2
    6 | 6
C[C@@H]1CN([C@@H](C)CO)C(=O)c2c(c3ccccc3n2C)-c2ccccc2CO[C@@H]1CN(C)S(=O)(=O)c1ccccc1C#N
    ? | .
COc1ccc(C#Cc2ccc([C@@H]3[C@@H](CO)N4CCCCN(C(=O)Nc5ccc(F)cc5)C[C@@H]34)cc2)cc1
    -33 | -30
C[C@H](CO)N1C[C@H](C)[C@H](CN(C)C(=O)c2cccnc2)Oc2cc(C#CC3(O)CCCC3)ccc2S1(=O)=O
    21 | 12
C[C@H](C(=O)N(C)C[C@H]1OCc2ccccc2-c2c(n(C)c3ccccc23)C(=O)N([C@@H](C)CO)C[C@@H]1C)c1ccccc1
    ? | .
C[C@@H](O)C#Cc1ccc([C@H]2[C@H](CO)N3CCCCN(C(=O)c4ccncc4)C[C@@H]23)cc1
    30 | 25

Five compounds from above, sorted by number of heavy atoms, lowest first.
Results follow in this order: Vaccinia inh | Vaccinia inh Venus
C[C@H](CO)N1C[C@H](C)[C@H](CN(C)Cc2ccccc2C(=O)O)OCc2cn(nn2)CCCC1=O
    9 | 8
CCC(=O)N1C[C@H](C)[C@@H](OC)CN(C)C(=O)c2ccc(NC(=O)C3CCCCC3)cc2OC[C@H]1C
    10 | 5
C[C@H](CO)N1C[C@H](C)[C@H](CN(C)C(=O)c2cccnc2)Oc2cc(C#CC3(O)CCCC3)ccc2S1(=O)=O
    21 | 12
C[C@H](C(=O)N(C)C[C@H]1OCc2ccccc2-c2c(n(C)c3ccccc23)C(=O)N([C@@H](C)CO)C[C@@H]1C)c1ccccc1
    ? | .
C[C@@H]1CN([C@@H](C)CO)C(=O)c2c(c3ccccc3n2C)-c2ccccc2CO[C@@H]1CN(C)S(=O)(=O)c1ccccc1C#N
    ? | .

Continuation:
Results follow in this order: Vaccinia inh | Vaccinia inh Venus
Cc1noc(C)c1NC(=O)N(C)C[C@H]1OCc2ccccc2-c2c(n(C)c3ccccc23)C(=O)N([C@H](C)CO)C[C@@H]1C
    10 | 4
COc1ccccc1NC(=O)N[C@@H]1C=C[C@@H](CC(=O)N[C@@H](C)c2ccccc2)O[C@@H]1CO
    -12 | -1
Cc1cc(C(=O)Nc2cccc3c2O[C@H](CN(C)C(=O)Nc2ccc4c(c2)OCO4)[C@@H](C)CN([C@H](C)CO)C3=O)n(C)n1
    18 | 11
C[C@H]1CN([C@@H](C)CO)C(=O)c2cccc(NC(=O)C3CCCCC3)c2O[C@@H]1CN(C)Cc1ccc(Cl)c(Cl)c1
    -17 | -16
CCNC(=O)[C@@H]1[C@@H](CO)[C@@H]2Cn3c(ccc(-c4cccc(F)c4)c3=O)[C@@H]2N1C(C)=O
    14 | 11
COc1ccc(NC(=O)Nc2ccc3c(c2)C(=O)N([C@@H](C)CO)C[C@H](C)[C@H](CN(C)C(=O)Nc2ccc(OC)cc2)OCCCC[C@H](C)O3)cc1
    16 | 5
CCCN1C[C@H](C)[C@@H](OC)CN(C)C(=O)c2cc(NC(=O)C3CCOCC3)ccc2OC[C@@H]1C
    -10 | 2
COC(=O)C[C@H]1CC[C@@H]2[C@@H](COc3ccc(NC(=O)Nc4ccc(C#N)cc4)cc3C(=O)N2C)O1
    -19 | -5
COc1cccc(NC(=O)N(C)C[C@H]2Oc3cc(C#Cc4ccccc4)ccc3S(=O)(=O)N([C@H](C)CO)C[C@@H]2C)c1
    -23 | -26
C[C@H](O)C#Cc1ccc([C@@H]2[C@@H](CO)N3CCCCN(C(=O)c4ccc5c(c4)OCO5)C[C@@H]23)cc1
    -1 | -7
C[C@@H]1CN([C@H](C)CO)S(=O)(=O)c2ccc(C#CC3CCCC3)cc2O[C@H]1CN(C)C(=O)Nc1cc(F)ccc1F
    ? | .
N#C[C@H]1[C@@H](c2ccc(C3=CCCCC3)cc2)[C@@H](CO)N1S(=O)(=O)c1cccc(F)c1
    ? | .
O=C(C[C@@H]1C=C[C@H](NS(=O)(=O)c2cccc(F)c2)[C@@H](CO)O1)NCc1ccc2c(c1)OCO2
    -7 | -1
Cc1ccccc1S(=O)(=O)N1CC(=O)N2[C@@H](CO)[C@H](c3ccc(C#CCC(C)C)cc3)[C@@H]2C1
    -28 | -33
N#C[C@H]1[C@@H](c2ccc(C#CC3CCCCC3)cc2)[C@@H](CO)N1S(=O)(=O)Cc1ccccc1
    -14 | -6
O=C(c1ccccc1)N1CC(=O)N2[C@H](C1)[C@@H](c1ccc(C3=CCCC3)cc1)[C@@H]2CO
    23 | 14
C[C@H](CO)N1C[C@H](C)[C@@H](CN(C)C(=O)NC2CCCCC2)Oc2ccc(NC(=O)CCC(F)(F)F)cc2C1=O
    19 | 9
O=C(C[C@@H]1C[C@H]2c3cc(NC(=O)CC4CC4)ccc3O[C@H]2[C@H](CO)O1)NCc1ccc2c(c1)OCO2
    -4 | 4
C[C@@H]1CCCCO[C@@H](CN(C)S(=O)(=O)c2cn(C)cn2)[C@H](C)CN([C@H](C)CO)C(=O)c2cc(NC(=O)Nc3ccc4c(c3)OCO4)ccc2O1
    6 | -4
COCC#Cc1ccc([C@@H]2[C@@H](CO)N3CCCCN(C(=O)CN(C)C)C[C@H]23)cc1
    -3 | -4

C[C@H](CO)N1C[C@H](C)[C@H](CN(C)CC2CCCCC2)Oc2ccc(NC(=O)Nc3ccc4c(c3)OCO4)cc2CC1=O
- Vaccinia inh = -23
- Vaccinia inh Venus = -17
CC(C)NC(=O)N(C)C[C@@H]1Oc2ccc(NS(C)(=O)=O)cc2CC(=O)N([C@@H](C)CO)C[C@@H]1C
- Vaccinia inh = 11
- Vaccinia inh Venus = 8
CN1C(=O)c2cc(NC(=O)Cc3cccs3)ccc2OC[C@H]2O[C@H](CC(=O)N[C@H]3CCN(Cc4ccccc4)C3)CC[C@H]21
- Vaccinia inh = -13
- Vaccinia inh Venus = -13
Cc1ccc(S(=O)(=O)Nc2ccc3c(c2)CC(=O)N([C@H](C)CO)C[C@H](C)[C@H](CN(C)S(C)(=O)=O)O3)cc1
- Vaccinia inh = 15
- Vaccinia inh Venus = 7
CC(C)NC(=O)Nc1ccc2c(c1)C(=O)N([C@H](C)CO)C[C@@H](C)[C@H](CN(C)CC1CCCCC1)OCCCC[C@H](C)O2
- Vaccinia inh = 5
- Vaccinia inh Venus = -10
O=C(Cc1ccccn1)NCC[C@@H]1CC[C@H](NS(=O)(=O)c2ccccc2)[C@H](CO)O1
- Vaccinia inh = 7
- Vaccinia inh Venus = 7
CNC[C@@H]1Oc2cc(C#CC3CCCCC3)ccc2S(=O)(=O)N([C@@H](C)CO)C[C@H]1C
- Vaccinia inh = ?
- Vaccinia inh Venus = .
COc1ccccc1CNC(=O)C[C@H]1C[C@@H]2c3cc(NC(=O)c4cccnc4)ccc3O[C@@H]2[C@H](CO)O1
- Vaccinia inh = -1
- Vaccinia inh Venus = 7
CN1CCN(C(=O)C[C@@H]2CC[C@H]3[C@@H](COC[C@H](O)CN3Cc3cccc(Cl)c3)O2)CC1
- Vaccinia inh = 6
- Vaccinia inh Venus = 6
C[C@H](CO)N1C[C@H](C)[C@H](CN(C)S(=O)(=O)c2ccccc2)Oc2c(NC(=O)CCCCCC(=O)Nc3ccccc3N)cccc2C1=O
- Vaccinia inh = -2
- Vaccinia inh Venus = -7
O=C(NCCN1CCCC1)[C@@H]1[C@@H](CO)[C@@H]2Cn3c(cccc3=O)[C@H]1N2C(=O)c1ccccc1
- Vaccinia inh = 13
- Vaccinia inh Venus = -4
Cc1noc(C)c1S(=O)(=O)Nc1ccc2c(c1)CC(=O)N([C@H](C)CO)C[C@@H](C)[C@H](CN(C)C(=O)Nc1cccc3ccccc13)O2
- Vaccinia inh = 22
- Vaccinia inh Venus = 19
C[C@@H]1CN([C@H](C)CO)C(=O)c2cccc(NC(=O)c3ccncc3)c2O[C@@H]1CN(C)Cc1ccc(Oc2ccccc2)cc1
- Vaccinia inh = -6
- Vaccinia inh Venus = -7
CN(C)CCCNC(=O)C[C@H]1CC[C@H]2[C@H](COc3ccc(NC(=O)C4CCC4)cc3C(=O)N2C)O1
- Vaccinia inh = 15
- Vaccinia inh Venus = 12
C[C@H](O)C#Cc1ccc2c(c1)O[C@@H](CN(C)C(=O)CC1CC1)[C@@H](C)CN([C@H](C)CO)S2(=O)=O
- Vaccinia inh = 9
- Vaccinia inh Venus = 13
C[C@@H]1CN([C@@H](C)CO)C(=O)c2cccc(NC(=O)c3ccc(-c4nccs4)cc3)c2O[C@@H]1CN(C)Cc1ccc(C(=O)O)cc1
- Vaccinia inh = 13
- Vaccinia inh Venus = 14
CC(=O)N(C)C[C@@H]1Oc2cc(C#CCN(C)C)ccc2S(=O)(=O)N([C@@H](C)CO)C[C@H]1C
- Vaccinia inh = 19
- Vaccinia inh Venus = 8
CC(C)NC(=O)Nc1ccc2c(c1)C(=O)N([C@H](C)CO)C[C@H](C)[C@H](CN(C)C)O2
- Vaccinia inh = 17
- Vaccinia inh Venus = 9
C[C@@H]1CN([C@H](C)CO)C(=O)c2cccc(N(C)C)c2O[C@@H]1CN(C)S(C)(=O)=O
- Vaccinia inh = 17
- Vaccinia inh Venus = 10
C[C@H](CO)N1C[C@H](C)[C@@H](CN(C)S(=O)(=O)c2cccs2)Oc2ccc(NS(C)(=O)=O)cc2C1=O
- Vaccinia inh = 6
- Vaccinia inh Venus = 2
CNC(=O)C[C@@H]1CC[C@@H]2[C@H](COC[C@H](O)CN2C(=O)Nc2cccc(OC)c2)O1
- Vaccinia inh = 10
- Vaccinia inh Venus = 4
C[C@H]1CN([C@@H](C)CO)C(=O)c2cc(NS(=O)(=O)c3ccc(Cl)cc3)ccc2O[C@H]1CN(C)Cc1ccc(C(=O)O)cc1
- Vaccinia inh = 12
- Vaccinia inh Venus = -3
Cc1ccc(S(=O)(=O)N(C)C[C@@H]2OCCCC[C@H](C)Oc3ccc(NS(=O)(=O)c4ccc(Cl)cc4)cc3C(=O)N([C@H](C)CO)C[C@@H]2C)cc1
- Vaccinia inh = ?
- Vaccinia inh Venus = .
Cc1noc(C)c1S(=O)(=O)Nc1ccc2c(c1)C(=O)N([C@@H](C)CO)C[C@H](C)[C@H](CN(C)S(=O)(=O)c1cn(C)cn1)OCCCC[C@H](C)O2
- Vaccinia inh = 28
- Vaccinia inh Venus = 8

Not all compounds are listed; rates above refer to the full screens.
